MgrA-DNA mod: S. aureus MgrA-DNA binding modulation; inhibition, %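 (about 10 µg/mL by stock and volumes)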; 84,000 tested, 0.13% active; fluorescence polarization;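 active = above 50% in either of two replicates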;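 note: 0% = protein plus DNA without compound and 100% = DNA alone without protein; higher means less MgrA bound to DNA so lower polarization; one replicate is shown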
Sa helicase inh: blocks Staphylococcus aureus DNA helicase. purified S. aureus helicase, fluorescence unwinding assay; about half of the hits fall short of the stated cut. 120,000 tested, 0.05% active. inhibition, %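 (tested at about 80 µM)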;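 active = both duplicates at 50% or more, or one of them with a favoured structure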;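 note: 0% = mean of negative control wells and 100% = mean of positive control wells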
The depositor's hits bear a star; · = not tested or not shown. An excerpt; the hit share may differ from the screen's.

SMILES	MgrA-DNA mod	Sa helicase inh
N#Cc1c(Cl)cccc1NC(=O)Nc1ccc(Cl)cc1	1.9	·
CCc1cc2c(NCCO)ncnc2s1	0.8	-2
Cc1cc(S(=O)(=O)N2CCN(Cc3ccccc3)CC2)c(C)cc1Cl	-0.6	·
O=C(O)Cn1ccc2ccccc21	-3.9	6
CC(C(=O)Nc1ccccc1)N1C(=O)c2ccccc2C1=O (stereo not drawn)	-0.7	4
CC1CCN(S(=O)(=O)c2ccc(NC(=O)/C=C/c3ccco3)cc2)CC1	·	-10
CC(=O)OC[C@H]1O[C@@H](Nc2ccc(C)cc2)[C@H](OC(C)=O)[C@@H](OC(C)=O)[C@@H]1OC(C)=O	-2.2	·
Cc1c2cnn(CC(=O)N3CCc4ccccc43)c(=O)c2c(C)n1Cc1ccc(Cl)cc1	-1.6	-5
O=C(CSc1nnc(Cc2ccccc2)o1)N1CCCC1c1ccc2c(c1)OCCCO2 (stereo not drawn)	·	-7
Cn1nc(-c2ccc(S(=O)(=O)N3CCCCC3)s2)cc1C(F)(F)F	-1.3	·
Cc1ccc(Nc2cc(C(=O)N3CCCC3)c3ccccc3n2)cc1C	2.5	9
CCCCn1c(C(C)NC(=O)COc2ccccc2)nc2ccccc21 (stereo not drawn)	·	-25
CC(=O)CS(=O)(=O)c1ccc(C)cc1	2.2	·
CCc1ccc(NC(=O)CSc2ncnc3ccccc23)cc1	-2.5	-14
Cc1nc2ccc(C(=O)OCC(=O)c3ccc4c(c3)OCCO4)cc2nc1C	·	-3
CCOc1ccc(N(CC)c2nc(-c3ccc(OC)cc3)no2)cc1	9.7	1
COC(=O)C1=C(C)NC(C)=C(C(=O)OC)C1c1cccs1	·	22
Cc1ccc(NC(=O)Cn2cc(C#N)c3ccccc32)cc1	2.5	-2
COc1ccc(-c2noc(CCCC(=O)N(C)C)n2)cc1	·	-20
CCn1c(SCc2nc3ccccc3[nH]2)nc2cc(C(=O)OC)ccc2c1=O	2.7	18
Cc1nc2scc(-c3cccs3)c2c(=O)n1CC(=O)OCC#N	·	7
O=C(CC1CC2CCC1C2)NC1CCCCCCC1 (stereo not drawn)	1.2	3
Cc1ccc(CCNC(=O)Cn2ncc3c2-c2cc(C)ccc2OC3)cc1	·	-2
Cc1cc(C(F)(F)F)c(C#N)c(SCC(=O)O)n1	-2.2	9
CCC(=O)N(CCN1C(=O)c2ccccc2C1=O)c1ccc(C)cc1C	·	-20

Some of these compounds in order of length of the SMILES, highest first.
SMILES	MgrA-DNA mod	Sa helicase inh
Cc1c2cnn(CC(=O)N3CCc4ccccc43)c(=O)c2c(C)n1Cc1ccc(Cl)cc1	-1.6	-5
CC1CCN(S(=O)(=O)c2ccc(NC(=O)/C=C/c3ccco3)cc2)CC1	·	-10
Cc1cc(S(=O)(=O)N2CCN(Cc3ccccc3)CC2)c(C)cc1Cl	-0.6	·

3 consecutive compounds already listed, for reference:
SMILES	MgrA-DNA mod	Sa helicase inh
Cc1ccc(CCNC(=O)Cn2ncc3c2-c2cc(C)ccc2OC3)cc1	·	-2
Cc1cc(C(F)(F)F)c(C#N)c(SCC(=O)O)n1	-2.2	9
CCC(=O)N(CCN1C(=O)c2ccccc2C1=O)c1ccc(C)cc1C	·	-20

Additional compounds follow.
SMILES	MgrA-DNA mod	Sa helicase inh
CC(C)NC(=O)CSCc1csc2c1CCCC2	0.9	6
CN=C1S/C(=C/c2cccc(F)c2)C(=O)N1C	0.1	6
Cc1cc(O)c(-c2[nH]ncc2-c2nc(C)cs2)c(O)c1	·	-24
Cc1sc2ncn3nnnc3c2c1-c1ccccc1	·	-13
N#Cc1cnn2c(-c3cccc(C(F)(F)F)c3)ccnc12	1.8	·
CCOC(=O)c1csc(Cc2c(Cl)sc3ccc(Cl)cc23)n1	-1.4	·
Cc1c(CCC(=O)O)c(=O)oc2cc3occ(-c4ccccc4)c3cc12	-0.7	7
COc1ccc(OC)c(C2C3=C(CC(C)(C)CC3=O)Nc3ccccc3N2C(=O)C(F)(F)F)c1 (stereo not drawn)	-1.3	·
Cc1[nH]c(=O)[nH]c(=O)c1CSCC(=O)O	-2.6	-6
CCCCC1(c2cc(O)cc(O)c2)SCCS1	-2.5	8
Cc1cc(Oc2ccc([N+](=O)[O-])cn2)ccc1Cl	-3.0	·
COc1cccc(C(=O)Nc2nnc(SCc3ccccc3)s2)c1	·	8
CC(C)c1ccc(CN(C)CC(O)COCc2ccc3c(c2)OCO3)cc1 (stereo not drawn)	·	-6
O=C1NC(=S)S/C1=C\c1ccccc1C(F)(F)F	2.7	·
NC(=O)c1ccsc1NC(=O)c1coc2ccccc2c1=O	·	-5
COc1ccc(-c2c(C#N)c(N)nc3sc(C(=O)c4ccccc4)c(N)c23)cc1	1.3	·
Cc1ccc(CCC(=O)O)cc1	-3.1	·
Cc1ccc(S(=O)(=O)Nc2ccc(Oc3cccnc3)nc2)cc1	-1.6	·
COc1cc(C2NC(=O)C3C4=C(CCC4)SC3N2)ccc1OCC(=O)Nc1ccc(C)cc1 (stereo not drawn)	·	-12
COC(=O)Cc1[nH]n(-c2nc3ccccc3s2)c(=O)c1C(C)=O	0.8	19
Cc1nnsc1C(=O)Nc1ccc(C(N)=O)cc1	·	1
CC(C)Cn1c(N)c(Br)c(=O)[nH]c1=O	·	0
CC(C)C(=O)Nc1noc2ccccc12	·	-20
Fc1ccc(-c2cn3nc(C(F)(F)F)sc3n2)cc1	0.1	·
CC1CN(CC(=O)Nc2ccc3c(c2)CCC3)CC(C)O1 (stereo not drawn)	·	13

Other results:
SMILES	MgrA-DNA mod	Sa helicase inh
C=CCNC(=O)c1ccc2c(=O)n(Cc3ccco3)c(=S)[nH]c2c1	·	20
c1ccc(CNC2C3CC4CC(C3)CC2C4)nc1 (stereo not drawn)	-6.0	-5
COC(=O)C1CCN(C(=O)C(C)(C)C)CC1	-3.1	-1
Cc1[nH]nc(N)c1C#N	·	22
N#Cc1cc(-c2nc3ccccc3[nH]2)c(N)n2c1nc1ccccc12	3.1	9
CC(=O)Nc1ccc2c(c1)nc1n2CCN(C(C)c2ccccc2)C1 (stereo not drawn)	·	14
CSc1nc(C)cc(C)c1C#N	-0.3	·
S=c1nccc(-c2csc(COc3ccccc3Cl)n2)[nH]1	4.6	·
CCN1CCCc2cc(CN(C(=S)Nc3ccc(OC)cc3)C3CCCC3)ccc21	1.1	-6
CC(C)NCc1c(O)c(Br)cc2oc3c(c12)CCCC3	·	4
CS(=O)(=O)N(CC(=O)Nc1ccc2c(c1)OCCO2)c1ccccc1	-0.3	6
O=c1cc(-c2ccccc2)nc(Cc2c(Cl)cccc2Cl)[nH]1	1.8	·
Cc1ccc(OC(=O)c2ccco2)c(-n2nc3ccccc3n2)c1	·	-30
Cc1ccc(Cn2c(C)c3cnn(CC(=O)N4CCCCCC4)c(=O)c3c2C)cc1	·	28
COc1ccc(-c2nc3cccc(C)n3c2NCc2ccco2)cc1OC	-1.4	14
O=C(O/N=C1/CCCc2occc21)c1ccccc1	·	0
COc1ccc(NCc2nc3ccccc3n2CCOc2ccccc2)cc1	-3.8	4
Cc1ccccc1OCc1nnc(SCC(=O)Nc2sc(C)c(C)c2C#N)n1-c1ccccc1	0.6	4
Cc1cccc(C)c1N=C1SCCS1	-12	·
COC(=O)c1ccc(NC(=O)COC(=O)c2ccc3c(c2)OCCO3)cc1	·	2
Cc1cc(C(=O)CC#N)c(C)n1-c1cccc(C(F)(F)F)c1	-0.8	12
COC(=O)C1C2C=CC3(CN(c4ccccc4OC)C(=O)C13)O2 (stereo not drawn)	·	3
N#Cc1ccc(OC(C(F)(F)F)C(F)(F)F)cc1C#N	·	0
Cc1nonc1C(=O)N/N=C/C(C)C	·	10
O=C(CSc1ccc(-c2cccs2)nn1)NCCc1ccccc1	0.5	5

Continuation:
SMILES	MgrA-DNA mod	Sa helicase inh
CSc1nc2n(n1)C(C(C)C)C(C(=O)Nc1ccccc1)=C(C)N2 (stereo not drawn)	-1.7	17
CNC(=O)NC(=O)CSc1cc(C)c2ccccc2n1	·	7
Cc1ccc(Cl)cc1N1CCN(C(=O)CN2C(=O)COc3ccc(C(C)(C)C)cc32)CC1	0.6	6
COc1ccc(N2CCN(C(=O)C(c3ccccc3)c3ccccc3)CC2)cc1	·	-10
O=C(CCN1C(=O)c2ccccc2Sc2ncccc21)NCc1ccccc1	1.9	0
O=C(NC1CCCC1)C1CCCN(C2=NS(=O)(=O)c3ccccc32)C1 (stereo not drawn)	·	-10
COC(=O)CS(=O)(=O)c1ccc(C(F)(F)F)cn1	4.5	·
CCC1Nc2ccccc2-c2nnc(SC)nc2O1 (stereo not drawn)	2.5	6
CCc1nc2ccccc2n1CCO	-1.1	7
CC(=O)N(C)c1nc(N)n(-c2ccccc2)n1	-0.3	-8
O=C(NCC1CCCO1)Nc1ccccc1 (stereo not drawn)	-3.4	6
CC(C)(C)C(=O)Nc1cc(C(F)(F)F)cc(C(F)(F)F)c1	-1.0	·
c1ccc(Cc2nn3cnnc3s2)cc1	·	-14
N#CC(c1c(Cl)cccc1Cl)N1CCSCC1 (stereo not drawn)	-1.1	·
Cc1cc(Cc2c(O)nc(SCc3ccccc3)[nH]c2=O)ccc1OC(C)C	1.7	7
Cc1ccc(C(=O)NCC#N)cc1	-1.1	16
Cc1ccc(NC(=O)CN2C(=O)CSC(C)C2=O)cc1 (stereo not drawn)	·	17
CCC(C)c1ccccc1NC(=O)C1CCCO1 (stereo not drawn)	0.2	8
Cc1cc(N(C)C)c(C#N)c(N2CCCCC2)n1	·	10
CCN(CC)C(=O)Oc1ccccc1	-2.7	9
COc1ccc(C(=O)Nc2ccncc2)c(OC)c1	-3.2	-8
CCn1cc(CN(C)C(=S)Nc2ccc(S(=O)(=O)Nc3ncccn3)cc2)c(C)n1	2.1	0
COc1cc(/C=C2/C(C)=C(C#N)c3nc(N)c(C#N)c(C)c32)ccc1OCc1ccc(C(=O)O)cc1	5.2	·
Brc1ccc(-c2csc(-c3ccncc3)n2)cc1	-3.8	·
Cc1onc(-c2ccccc2)c1NC(=O)Nc1c(Cl)cccc1Cl	-0.8	·

Going on with the list.
SMILES	MgrA-DNA mod	Sa helicase inh
O=C(CSc1nc2ccccc2[nH]1)c1ccccc1	-2.4	16
CC(=O)Nc1c(-c2ccc(F)cc2)nc2ccccn12	0.6	-7
Cc1nc2c(cnn2C(C)C)cc1C(=O)O	·	0
CCOC(=O)COc1ccccc1O	0.0	-20
CSc1sc(-c2ccn(C(=O)Nc3ccccc3)n2)c2c1C(=O)CC(C)(C)C2	1.3	·
CCN(CC)c1cc(C)c2cc(NC(=O)C3CC3)ccc2n1	·	5
COC(F)(C(=O)N1CCOCC1)C(F)(F)F (stereo not drawn)	-1.5	13
COC(=O)/C(C#N)=C/c1cccc(OC)c1	·	-12
O=C(c1cc2c(=O)oc3ccccc3c2s1)N(Cc1cccs1)C1CCCC1	·	37
CC(C)(C)OC(=O)N1CCc2nc(N3CCCCC3)ncc2C1	·	19
O=C(CCn1nc(-c2ccccc2)ccc1=O)N1CCOCC1	1.2	2
CCc1ccc(NC(=O)c2cc3c(=O)n(C)c4ccccc4c3s2)cc1	3.0	14
COc1ccc(-n2cccc2/C=C2/C(=N)N3C(c4ccccc4)=CSC3=NC2=O)cc1	·	-84
OC(COC1CCCCC1)CN1CCCCC1 (stereo not drawn)	-4.0	14
Cc1ccc(CN(C)C(=O)c2ccccc2OCCOc2ccccc2)o1	·	4
CN(C1CCCCC1)S(=O)(=O)c1ccc(Cl)c(C(=O)NCCc2ccccn2)c1	·	-2
CC1CN(C(=O)CCC(=O)NCc2ccccc2)c2ccccc2O1 (stereo not drawn)	·	12
CC1CC(C)N(C(=O)CSc2nc3c(c(C(F)(F)F)n2)CCc2ccccc2-3)C(C)C1 (stereo not drawn)	-0.4	-5
COc1ccc(-c2c(C)nn3c(N4CC(C)CC(C)C4)cc(C)nc23)cc1OC (stereo not drawn)	·	10
Cc1c(C(=O)NCc2ccco2)oc2c1C(=O)CCC2	4.2	7
C=C1c2ccccc2NC(=S)N1Cc1ccc2c(c1)OCO2	·	5
OC1CCN(C(=S)Nc2ccc(Nc3ccccc3)cc2)CC1	1.6	6
CCCCCCCC/C=C\C/C=C\C/C=C\CCCC(=O)NCCO	-0.6	·
N#C/C=C(\c1ccc(F)cc1)N1CCOCC1	·	0
Cc1ccsc1C=Nc1ccccc1N1CCCCC1	·	-8

Additional compounds.
SMILES	MgrA-DNA mod	Sa helicase inh
C=CCn1c(SCc2cc3ccc(C)cc3nc2Cl)nnc1-c1ccoc1C	·	-4
CC(=O)NC1=NC(=O)/C(=C/c2ccc(-c3ccc(F)cc3F)o2)S1	-3.2	·
COc1ccc(/C=C(\C#N)c2ccccn2)cc1	-2.4	·
Cc1ccc(Cn2c(C)c(CNCc3ccco3)c(C(=O)O)c2C)cc1	·	10
CC(=O)OCCS(=O)(=O)c1ccc(C(F)(F)F)cn1	-5.0	·
Cc1nc(-c2ccccc2)sc1C(=O)NN	-3.8	·
O=C(O)C(c1ccccc1)c1cn2cc(Cl)ccc2n1 (stereo not drawn)	-2.0	-15
COc1ccc2oc(C(=O)N3CCN(S(=O)(=O)c4ccc5c(c4)OCCO5)CC3)c(C)c2c1	·	-5
CC(=O)Nc1ccc(Nc2c3c(c(C#N)c4nc5ccccc5n24)CCCC3)cc1	0.1	4
O=C(c1cc(F)cc(F)c1)N1CC=C(c2ccccc2)CC1	·	-6
CCCCCCCCCCCCCCCCOCC(CO)OC(C)=O (stereo not drawn)	2.5	·
O=C(CSc1nc2ccccc2o1)OCC(=O)N1c2ccccc2Sc2ccccc21	-2.7	13

Grouped by structure, the entries above containing a tert-butyl group
SMILES	MgrA-DNA mod	Sa helicase inh
COC(=O)C1CCN(C(=O)C(C)(C)C)CC1	-3.1	-1
Cc1ccc(Cl)cc1N1CCN(C(=O)CN2C(=O)COc3ccc(C(C)(C)C)cc32)CC1	0.6	6
CC(C)(C)C(=O)Nc1cc(C(F)(F)F)cc(C(F)(F)F)c1	-1.0	·
CC(C)(C)OC(=O)N1CCc2nc(N3CCCCC3)ncc2C1	·	19

Screens from PubChem.
